HCMV NEC inh – inhibitors of HCMV UL50-UL53 nuclear egress complex interaction | inhibition, % (concentration not given with the values) | HTRF UL50-UL53 interaction, normalized percent inhibition | AID 1918969 | actives 0.15% (n = 190,000);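 active = both replicates at 50% or more, plus weaker picks with an unusually low signal ratio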;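 note: stock transfer was 100 nL into about 20 µL; 0% = negative control wells and 100% = wells with untagged competitor protein; inactives centre near -12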
GIV-Gai inh – blocks GIV peptide binding to rat Galpha-i3 | P08753 | Galpha-i3/FITC-GIV peptide fluorescence polarization, 90 min; stronger effect = lower value; scaled: aluminum fluoride 0%, vehicle 100% | percent of control (FP), % (test concentration not listed) | actives 0.42% (n = 210,000);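 active = replicate mean at 85% of control or lower, very high polarization wells dropped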;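 note: wells of about 15 µL received 100 nL stock; the first replicate is given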
Target sequence (P08753 whole entry, looked up): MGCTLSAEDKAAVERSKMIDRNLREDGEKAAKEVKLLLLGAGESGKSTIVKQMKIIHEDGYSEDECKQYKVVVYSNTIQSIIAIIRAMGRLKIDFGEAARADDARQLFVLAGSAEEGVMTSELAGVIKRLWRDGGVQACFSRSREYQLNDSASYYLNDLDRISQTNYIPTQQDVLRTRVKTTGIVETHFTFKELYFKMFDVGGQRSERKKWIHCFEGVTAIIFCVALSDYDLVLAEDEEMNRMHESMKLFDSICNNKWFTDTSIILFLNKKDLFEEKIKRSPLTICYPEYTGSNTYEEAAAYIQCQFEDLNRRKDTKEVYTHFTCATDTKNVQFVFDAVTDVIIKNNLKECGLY
Sa growth inh – blocks Staphylococcus aureus growth | actives 0.53% (n = 170,000) | S. aureus RN4220 growth, OD600, 20 h, 42 °C; stronger effect = lower value | relative growth, % (concentration not given with the values);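 active = growth at 42 °C up to 50% and 20 or more points under that at 30 °C, or under 10% at both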;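 note: 300 nL library stock went into each well; scaled to the means of positive and negative controls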
Sa growth inh second temp – second read-out of Sa growth inh, no call of its own (marks repeat the call); relative growth, %; measured here: growth at 30 °C;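 optical density after 20 h as mean of two plates; 100% = untreated growth and lower means inhibition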
Starred values were filed as active, the others as inactive; . = no result given; & = joins results of further samples. No enrichment for hits, and some 0.83% of all compounds hit somewhere here.

structure | HCMV NEC inh | GIV-Gai inh | Sa growth inh | Sa growth inh second temp
O=C(COc1ccccc1)Nc1nncs1 | -15 | 99 | 94 | 91
O=C(Nc1ccc(Br)cc1)Nc1nc2c(s1)CCCCCC2 | . | 98 | 109 | 99
Cc1ccc(Sc2c(C)n[nH]c2C)cc1 | -5 | 99 | 116 | 103
Cc1ccccc1NC(=O)c1ccc(Cl)c(S(=O)(=O)N2CCCCCC2)c1 | 14 | 111 | 104 | 93
COc1cc(-c2noc(-c3ccc(N(C)C)c([N+](=O)[O-])c3)n2)cc(OC)c1OC | -30 | 100 | 90 | 87
COc1ccc(Cl)cc1-n1c(C)cc(C(=O)OCC#N)c1C | -16 | . | 80 | 85
CCN(CC)CCNc1nc(-c2ccco2)c2c(c1C#N)CC(C)(C)OC2 | . | 102 | 123 | 95
O=C(CSc1nc(-c2ccco2)nc2cc(=O)[nH]n12)Nc1ccccc1 | -57 | 109 | 109 | 73
O=c1c2c([nH]c(=S)n1-c1ccc(F)cc1)CCS2 | -23 | 109 | 91 | 94
CC(C)(C)Sc1ccc(SC#N)s1 | -7 | 93 | 12 | 0
CC(C)n1nc(C(=O)Nc2ccccc2N2CCOCC2)c2ccccc2c1=O | -1 | . | 107 | 94
COc1ccc2ncc(C(=O)c3ccccc3)c(N3CCC(C)CC3)c2c1 | -7 | 94 | . | .
CN(C)CC1CCCCC1OC(=O)c1ccc(Cl)cc1 (stereo not given) | -10 | . | 103 | 90
Nn1c(COc2cccc(Br)c2)nnc1SCC(=O)N(C1CCCC1)C1CCS(=O)(=O)C1 (stereo not given) | -19 | . | 82 | 80
Cn1cc(-c2cc3n(n2)CCC(=O)N3CCCC(=O)Nc2ccc(Cl)cc2)c2ccccc21 | . | 107 | 98 | 89
COCCOC(=O)Nc1nc2ccc(OC)cc2s1 | -3 | 105 | . | .

7 structures out of the list, arranged by SMILES length, smallest number first:
structure | HCMV NEC inh | GIV-Gai inh | Sa growth inh | Sa growth inh second temp
CC(C)(C)Sc1ccc(SC#N)s1 | -7 | 93 | 12 | 0
COCCOC(=O)Nc1nc2ccc(OC)cc2s1 | -3 | 105 | . | .
O=c1c2c([nH]c(=S)n1-c1ccc(F)cc1)CCS2 | -23 | 109 | 91 | 94
COc1ccc2ncc(C(=O)c3ccccc3)c(N3CCC(C)CC3)c2c1 | -7 | 94 | . | .
CCN(CC)CCNc1nc(-c2ccco2)c2c(c1C#N)CC(C)(C)OC2 | . | 102 | 123 | 95
O=C(CSc1nc(-c2ccco2)nc2cc(=O)[nH]n12)Nc1ccccc1 | -57 | 109 | 109 | 73
Cn1cc(-c2cc3n(n2)CCC(=O)N3CCCC(=O)Nc2ccc(Cl)cc2)c2ccccc21 | . | 107 | 98 | 89

Other entries.
structure | HCMV NEC inh | GIV-Gai inh | Sa growth inh | Sa growth inh second temp
O=C(NCc1cccs1)c1ccc(Cn2c(SCc3cccc(F)c3)nc3cccnc32)cc1 | . | 98 | 123 | 94
CC(=O)OCC(=O)c1ccc(NC(=O)c2ccccc2)cc1 | 31 | 108 | 90 | 90
Cc1cc(Cl)c(O)c(-n2nc3ccccc3n2)c1 | -15 | . | 99 | 87
COc1ccc(N2Cc3cccc(C(=O)Nc4ccc(F)cc4)c3C2=O)cc1 | 3 | 105 | 90 | 80
Cc1cn(C)c(CC(=O)NCc2ccccc2)c1C(=O)O | . | 100 | 114 | 85
CN1C(=O)CC(C(=O)Nc2ccccc2F)SC1=Nc1cccc(C(F)(F)F)c1 (stereo not given) | -12 | 103 | . | .
CN(CC(=O)N1CC=C(c2ccccc2)CC1)S(=O)(=O)c1ccc2nc(-c3ccccc3)[nH]c2c1 | . | 97 | 105 | 82
CC(=O)OCc1cc(=O)n2ccsc2n1 | -38 | 102 | 108 | 86
COc1ccc(/C=C2\SC(N)=NC2=O)cc1OC | -25 | 98 | 98 | 87
Cc1cc(NS(=O)(=O)c2ccc(NS(C)(=O)=O)cc2)no1 | -25 | . | 56 | 47
Cn1nc(C(C)(C)C)cc1C(=O)NCc1cc(F)cc2c1OCOC2 | -9 | 109 | 87 | 90
CCCn1c(SCc2nc(-c3ccc(OCC)cc3)no2)nnc1-c1ccc(Cl)cc1 | -12 | 105 | 107 | 81
S=c1n(CN2CCOCC2)c2ccccc2n1-c1ccccc1 | -27 | . | 61 | 74
COc1ccc(Cl)cc1NC(=O)Cn1c(=O)oc2cc(S(=O)(=O)N3CCCCCC3)ccc21 | . | 100 | 108 | 94
O=C(COC(=O)c1ccc(O)cc1)Nc1cccc(I)c1 | 16 | . | 81 | 76
Cc1c(C)c(C)c(C(=O)c2ccccc2C(=O)NCc2cccnc2)c(C)c1C | -14 | 102 | 91 | 91
Cc1ccc(NC(=O)c2c(-c3ccccc3Cl)noc2C)cc1-n1cnnn1 | -22 | 104 | . | .
CCN(CC)c1nc2c(S(=O)(=O)c3ccc(C)c(C)c3)nnn2c2ccccc12 | 8 | 102 | . | .
CCOC(=O)c1c(N)n(C(C)CC)c2nc3ccccc3nc12 (stereo not given) | -35 | . | 105 | 75
COCCCNC(=O)CS(=O)Cc1nc(-c2cccc(C)c2)oc1C (stereo not given) | -16 | 107 | 100 | 85
COc1cc(-c2c(C#N)c(N)nc3sc(C(N)=O)c(N)c23)cc(OC)c1OC | -40 | 106 | . | .
Cc1nnc(NCCc2ccccc2)[nH]c1=O | -21 | . | 105 | 86
COc1ccc2c(c1OC)C(=O)N(c1cccc(Cl)c1)C2=O | -32 | 101 | 92 | 88
O=C(Nc1cccc(Cl)c1)N1CC2CCCN2c2ccccc21 (stereo not given) | 4 | 103&107 | 95 | 98

In the list so far, 2 have a furan ring, fused or not.
structure | HCMV NEC inh | GIV-Gai inh | Sa growth inh | Sa growth inh second temp
CCN(CC)CCNc1nc(-c2ccco2)c2c(c1C#N)CC(C)(C)OC2 | . | 102 | 123 | 95
O=C(CSc1nc(-c2ccco2)nc2cc(=O)[nH]n12)Nc1ccccc1 | -57 | 109 | 109 | 73

New compounds follow.
structure | HCMV NEC inh | GIV-Gai inh | Sa growth inh | Sa growth inh second temp
Cc1ccn2cc(C(=O)OC(C)c3nnc(-c4cccs4)o3)nc2c1 (stereo not given) | 5 | . | 84 | 88
CCOc1ccccc1/C=N\N1CCN(c2ccccc2)CC1 | -20 | 105 | 89 | 90
O=C(Nc1cccc(-c2nc3cccnc3s2)c1)C1CCCO1 (stereo not given) | -53 | 110 | . | .
Cc1cccn2c(=O)c(C(=O)NCc3ccccc3Cl)c(O)nc12 | -6 | 100 | 102 | 89
CC1CCN(S(=O)(=O)c2ccc3[nH]c(=O)[nH]c3c2)CC1 | . | 99 | 82 | 88
COc1ccccc1NC(=O)c1cc2ccccc2c(C=Nc2ccc(NC(C)=O)cc2)c1O | . | 135 | 107 | 92
OCc1nc2ccccc2n1Cc1ccc(Cl)cc1 | . | 98 | 95 | 81
O=C(CSc1nnc(COc2cccc3cccnc23)o1)N1c2ccccc2CCc2ccccc21 | -48 | 103 | 100 | 88
Cc1ccc(C2CC(c3ccc(F)cc3)n3ncnc3N2C(=O)C2CC2)cc1 (stereo not given) | . | 102 | 109 | 82
CCOC(=O)c1cc(C(=O)Nc2ccccc2)c(=O)[nH]c1C | 2 | 103 | . | .
CC(C)CCNC(=O)C1(C)Cn2c(c(-n3cccc3)c3ccccc32)C(=O)N1Cc1ccccn1 (stereo not given) | -6 | 101 | . | .
CC(C)CCNC(=O)C1CCN(c2cc(-c3ccc(F)cc3)ncn2)CC1 | -30 | 102 | . | .
COc1ccc(-c2cc(C(=O)Nc3ccccc3OC)c3ccccc3n2)cc1 | -11 | 105 | . | .
CCCc1n[nH]c(=O)c2c1nnn2Cc1ccccc1F | 7 | 107 | 105 | 95
CCCCNC(=O)c1nn(-c2ccc(OC)cc2)c(=O)c2ccccc12 | -14 | 102 | 86 | 90
O=C(Cn1nc(-c2ccc(Cl)cc2)ccc1=O)NCCCN1CCCCC1 | -24 | 106 | 84 | 87
O=C(CCCN1C(=O)c2cccnc2Oc2ccc(Cl)cc21)N1CCCCC1 | -32 | 100 | 89 | 74
Cc1ccc(NC(=O)c2cnc3cc(C)ccn3c2=O)c(C)c1 | -15 | 110 | 109 | 86
COC(=O)C1=C(C)NC(C)=C(C(=O)OC)C1c1ccc(C(C)C)cc1 | . | 104 | 99 | 85
CCOC(=O)c1ccccc1NC(=O)Cn1cc(C(=O)c2ccncc2)c(=O)c2cc(Cl)ccc21 | 0 | 104 | . | .
CCc1c(C)nc2nncn2c1NCc1ccc(Cl)cc1 | -34 | 98 | 102 | 85
CC(=O)N1CCCc2ccc(NC(=O)c3ccc(C(F)(F)F)cc3)cc21 | . | 114 | 93 | 94
Cn1c2ccccc2c2c(C(=O)N3CCN(c4cccc(Cl)c4)CC3)cn(C3CCCCC3)c(=O)c21 | -12 | 102 | 115 | 77
CCc1nc(SCC(=O)OC)n[nH]1 | -9 | 100 | 93 | 80

(listing goes on)
SMILES | HCMV NEC inh | GIV-Gai inh | Sa growth inh | Sa growth inh second temp
Cc1cc(OC(C)C(=O)N2CCN(Cc3ccccc3)CC2)nc(C(C)C)n1 (stereo not given) | -12 | . | 98 | 95
O=C(O)CCN1C(=O)CSc2ccccc21 | -8 | . | 96 | 97
CCC(C(=O)Nc1cc(C)ccc1C)n1c(=O)c(C(F)(F)F)nc2ccccc21 (stereo not given) | . | 107 | 89 | 93
Cc1ccc(CNC(=O)CCn2cnc3ccccc3c2=O)cc1 | . | 108 | 110 | 94
NS(=O)(=O)c1ccc(NC(=O)/C=C/C(=O)O)cc1 | 6 | 109 | 95 | 86
CC(C)n1c2ccccc2c2nnc(SCC(=O)NCc3ccc4c(c3)OCO4)nc21 | -27 | 104 | 81 | 58
Cc1cc(S(=O)(=O)Nc2ccc(C(=O)O)cc2)c(C)c(S(=O)(=O)c2ccc(Cl)cc2)c1 | -7 | 104 | 103 | 96
Cc1cc(C(=O)N2CCN(c3cccc(Cl)c3)CC2)c2c(C)nn(-c3ccccc3Cl)c2n1 | -34 | 102 | 103 | 88
COc1ccc(NC2CCN(C3CC(=O)N(c4ccc(Cl)cc4)C3=O)CC2)cc1 (stereo not given) | -9 | 107 | 77 | 92
Cn1nc(NC(=O)/C=C/c2ccc(OC(F)(F)F)cc2)c2c(F)cccc21 | 2 | 99 | 110 | 91
Cc1c(C)c(C)c(C#CCOC2CCCCO2)c(C)c1C (stereo not given) | -22 | 102 | 95 | 94
O=C(COCc1cc(-c2ccc3c(c2)OCO3)on1)Nc1ccc(Br)cn1 | 2 | 100 | . | .
CC(NC(=O)Nc1cn(C)c(=O)c2ccccc12)c1ccccc1 (stereo not given) | 10 | 106 | . | .
O=c1nc(-c2ccccc2)c2cc(Cl)ccc2[nH]1 | -6 | 96 | 112 | 88
CC(=O)OC1COC(Oc2ccc(C(C)(C)C)cc2)C(OC(C)=O)C1OC(C)=O (stereo not given) | -18 | 101 | 98 | 87
CC1=C(C#N)c2nc(N)c(C#N)c(C)c2/C1=C\c1ccc(Br)o1 | -9 | 103 | . | .
COc1ccc(-n2c(=O)c(C#N)cc3c(=O)n4ccccc4nc32)cc1Cl | . | 138 | 122 | 78
O=C(CCCc1nc(-c2ccccc2)no1)NC1CCCC1 | . | 100 | 94 | 82
Cn1nc(-c2ccc(/C=C(\C#N)S(C)(=O)=O)s2)cc1C(F)(F)F | 8 | 108 | 102 | 96
CCc1nc2sc(C(=O)Nc3ccc(OC(F)(F)F)cc3)c(N)c2cc1C | -8 | . | 94 | 89
NC(=O)CSc1nnc(-c2ccc(C(F)(F)F)cn2)s1 | -1 | 103 | 112 | 96
CC(C)Cc1nc(CNC(=O)C2CCCC2)no1 | -4 | 101 | . | .
CCN1CCN(C(=O)c2csc3c2CCCCC3)CC1 | . | 99 | 102 | 90
Cc1cc(NC(=O)n2nc(C)c3ccccc32)ccc1Br | -27 | 100 | . | .
Cc1ccccc1Cc1c(C)nc2c(-c3nc(-c4ccccc4)no3)cnn2c1C | -22 | 185 | . | .
O=C(CCCc1nnc2n(Cc3ccccc3)c(=O)c3ccccc3n12)NC1CCCCC1 | -23 | 104 | . | .
O=C(O)C1(NS(=O)(=O)c2ccc(Cl)cc2)CCCCC1 | . | 98 | 114 | 104
CC(=O)c1ccc(N2C(=O)N(Cc3ccccc3C#N)c3ccccc3S2(=O)=O)cc1 | . | 105 | 109 | 100
Cc1ccc2c(Cl)c(C(=O)Nc3ccc(S(=O)(=O)Nc4cc(C)nc(C)n4)cc3)sc2c1 | -19 | 103 | . | .
